Screening data as filed in PubChem.
CBX7 inh = CBX7 chromodomain binding inhibitors, primary screen, biochemical, AlphaScreen | Chromobox protein homolog 7 (Homo sapiens), O95931 | AlphaScreen His6-CBX7 / biotin-H3K27me3 peptide binding; active compounds read low | normalised signal (fraction of DMSO) (test concentration not listed) | actives 1.1% (n = 66,000); in the data active = normalised signal below about 0.5;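 also: 100 nL library stock added to about 20 µL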
Target sequence (O95931 whole entry, looked up): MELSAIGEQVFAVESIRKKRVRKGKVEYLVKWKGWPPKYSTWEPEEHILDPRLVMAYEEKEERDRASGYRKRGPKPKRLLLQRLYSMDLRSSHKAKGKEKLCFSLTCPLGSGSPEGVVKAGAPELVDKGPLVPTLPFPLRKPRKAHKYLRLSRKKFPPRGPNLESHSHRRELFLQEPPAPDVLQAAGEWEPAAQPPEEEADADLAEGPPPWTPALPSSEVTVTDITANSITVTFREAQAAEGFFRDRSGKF
CBX7 inh z-score = second read-out of CBX7 inh, no call of its own (marks repeat the call); z-score; measured here: z-score of CBX7 signal; some inactives read as strong as hits; reference of the scale not given here;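 same signal on another scale; lower means less binding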
An asterisk follows results filed as active. Not all compounds are listed; rates above refer to the full screens.

SMILES	CBX7 inh	CBX7 inh z-score
Cc1ccccc1-n1nc2c(c1NC(=O)C1(c3ccc(Cl)cc3)CCCC1)CS(=O)(=O)C2	0.97	-0.17
CCN1CCN(C(=O)CS(=O)(=O)Cc2nc(-c3ccc(C)cc3)oc2C)CC1	0.94	-0.12
Cc1ccn2c(NC(=O)c3ccc4ccccc4c3)c(-c3ccccc3)nc2c1	0.98	-0.37
COc1ccccc1NC(=O)c1sc(-c2ccccc2)nc1C	1.2	0.61
CC(NC(=O)CN1C(=O)CCSc2ccccc21)C12CC3CC(CC(C3)C1)C2 (stereo not drawn)	0.93	-3.2
O=C(CN1CCN(Cc2ccc(F)cc2)C1=O)NC1CCCCCCC1	1.1	0.82
CC(c1ccccc1)n1c(COc2ccc(Cl)cc2)nc2ccccc21 (stereo not drawn)	0.89	-1.4
COc1ccc(Cl)cc1NC(=O)c1c(NCc2ccncc2)sc2c1CCC(C)C2 (stereo not drawn)	0.73	-3.8
COc1ccc(-c2cc(=O)n(-c3nc4ccccc4s3)[nH]2)cc1	1.1	1.1
Cc1ccc(-c2nn(CCC(=O)N3CCC(Cc4ccccc4)CC3)c(=O)c3ccccc23)cc1	0.96	-1.2
Cc1cc(Br)ccc1NC(=O)CNC(=O)Cn1c(C)cc2ccccc2c1=O	1.2	1.8
O=C(Nc1cccc(C(F)(F)F)c1)C1CCCN(S(=O)(=O)c2cccnc2)C1 (stereo not drawn)	1	0.0019
CCc1ccc(NC(=O)CSc2nnc(-c3c[nH]c4ccccc34)n2CCOC)cc1	0.93	-0.46
CC(=O)Nc1nnc(CCS(=O)(=O)c2ccc(Cl)cc2)s1	1.1	0.08
CCOc1nc(-c2ccccc2Cl)c2cc(Br)ccc2n1	1	-0.038

Random excerpt: 6 records from the list
SMILES	CBX7 inh	CBX7 inh z-score
Cc1ccc(-c2nn(CCC(=O)N3CCC(Cc4ccccc4)CC3)c(=O)c3ccccc23)cc1	0.96	-1.2
Cc1cc(Br)ccc1NC(=O)CNC(=O)Cn1c(C)cc2ccccc2c1=O	1.2	1.8
CC(NC(=O)CN1C(=O)CCSc2ccccc21)C12CC3CC(CC(C3)C1)C2 (stereo not drawn)	0.93	-3.2
CCc1ccc(NC(=O)CSc2nnc(-c3c[nH]c4ccccc34)n2CCOC)cc1	0.93	-0.46
Cc1ccccc1-n1nc2c(c1NC(=O)C1(c3ccc(Cl)cc3)CCCC1)CS(=O)(=O)C2	0.97	-0.17
CCN1CCN(C(=O)CS(=O)(=O)Cc2nc(-c3ccc(C)cc3)oc2C)CC1	0.94	-0.12

Next results.
SMILES	CBX7 inh	CBX7 inh z-score
COc1ccc(Nc2cc(C(=O)NCCCN3CCCC3=O)c3ccccc3n2)cc1	0.83	-2
COc1cccc(-c2nc(S(=O)(=O)c3ccccc3)c(N3CCCCC3)o2)c1	1	-0.032
CCc1ccc(-c2nc(CN3CCC(C(=O)NCCCOC)CC3)c(C)o2)cc1	0.99	-0.019
O=S(=O)(c1ccc(Br)cc1)N1CCN(c2ccc3nnc(-c4ccccc4)n3n2)CC1	0.73	-3.8
CCOC(=O)N1CCC(NC(=O)C2CCCN(Cc3nc(-c4cccc(C)c4)oc3C)C2)CC1 (stereo not drawn)	1	-0.088
Cc1ccc(NC(=O)c2cc3c(-c4ccccc4F)nn(C)c3s2)nc1	1	0.058
Cc1cccc(C(=O)N2CCN(c3ccc(N4CCOCC4)nn3)CC2)c1	0.96	-0.58
CCOC(=O)CNC(=O)c1cnc(Nc2ccc(OC)cc2)c2ccccc12	1	0.012
CC(=O)N1c2ccc(S(=O)(=O)Nc3ccc(C)c(C)c3)cc2CC1C (stereo not drawn)	0.82	-0.73
Cc1ccccc1CN1CCN(CC(=O)N2CCN(C)CC2)C1=O	1.1	3.3
CCn1cc(C(=O)NCCN(C)C)c2cc(OC)c(OC)cc2c1=O	1.1	1.3
COc1ccc(Cl)cc1NC(=O)c1c(-c2ccccc2Cl)noc1C	1.2	3.5
Cc1cc(C)c2nc(SCc3ccccc3)nc(C)c2c1	1.4	11
CCN1CCCC1CNC(=O)CCc1nc(-c2ccc(C)cc2)no1 (stereo not drawn)	0.96	-0.059
Cc1ccc(CNC(=O)CCc2c(C)nc3c(-c4ccccc4)c(C)nn3c2C)cc1	1	1.2

Carrying on:
SMILES	CBX7 inh	CBX7 inh z-score
Cc1ccc(C(C)C)c(OCc2nc3ccccc3n2C(C)C)c1	0.98	-0.38
COc1ccc(OC)c(C2=NOC(C(=O)NCc3ccccn3)C2)c1 (stereo not drawn)	1	0.037
O=C(Nc1nnc(-c2ccc3c(c2)OCO3)s1)c1ccc(Cl)cc1	1	1.1
CCOC(=O)c1ccc(NCc2nc3ccccc3n2Cc2ccccc2F)cc1	0.97	-1
COc1cccc(C2CC(=O)NC3=C2C(=O)CC(C)(C)C3)c1OC(C)C (stereo not drawn)	1.1	0.78
COc1ccc(OC)c(NC(=O)CSc2nnc(CNC(=O)c3cccs3)o2)c1	1	0.5
CC(C)c1ccc(NCc2nc(-c3ccccc3)no2)cc1	1	0.0048
CCc1ccccc1NC(=O)CN(C)S(=O)(=O)c1ccc2c(c1)n(C)c(=O)c(=O)n2C	1.1	1.2
Cc1ccc(-c2cc(C(F)F)n3ncc(C(=O)N4CCCCC4c4cccnc4)c3n2)cc1 (stereo not drawn)	1	2
CN(c1ccc(Br)cc1)S(=O)(=O)c1ccc2c(c1)CCN2C(=O)C1CC1	0.71	-1.2
CCN1CCN(S(=O)(=O)c2ccc3c(c2)CCN3C(=O)C2CCC2)CC1	0.99	-0.48
COc1ccccc1NC(=O)CSc1nccn1-c1ccccc1	0.75	-5.3
CCOC(=O)c1cnc2ccc(C)cc2c1Nc1ccc(OC)cc1OC	0.87	-1.3
COc1ccc(CCNC(=O)c2ccc3c(c2)N(Cc2ccc(Cl)cc2)C(=O)CS3)cc1OC	0.94	-2.3
COC(=O)C(NC(=O)Nc1ccccc1)C12CC3CC(CC(C3)C1)C2 (stereo not drawn)	0.97	-0.61

More results follow.
SMILES	CBX7 inh	CBX7 inh z-score
COc1ccc2nc(Nc3nc(C)c(C)c(C)n3)nc(C)c2c1	1.2	1.9
Cc1cc(C)cc(NS(=O)(=O)c2ccc3[nH]cc(C(=O)NCc4ccc(Cl)cc4)c(=O)c3c2)c1	0.99	-0.13
O=C(NC1CC1)c1cccc(NC2=NC3CS(=O)(=O)CC3S2)c1 (stereo not drawn)	0.82	-2
COc1ccc(-c2c(C)nn3c(NCc4ccc(Cl)cc4)cc(C)nc23)cc1OC	0.85	-3.9
CCc1ccc2oc(-c3ccc(NC(=O)COc4ccc(C)cc4C)cc3)nc2c1	1	0.33
CC(C)c1ccc(-c2ccc(C#N)cc2)nc1	1.2	2
CCN(c1cccc(C)c1)S(=O)(=O)c1ccc2[nH]cc(C(=O)NCc3ccccc3)c(=O)c2c1	0.99	-0.31
Cc1ccn2c(NC(=O)c3ccc(Cl)cc3)c(-c3ccccc3)nc2c1	0.94	-1.2
Cc1ccnc(NC(=O)CCc2c(C)nc3cc(-c4ccccc4)nn3c2C)c1	1.1	2.1
CCCCSCCCNC(=O)CSCc1nc(-c2ccc(OCC)cc2)oc1C	0.57	-2.7
Cn1c(C(=O)N2CCC(C(=O)NCCC3=CCCCC3)CC2)cc2sccc21	1.1	0.9
Cc1cccc(NC(=O)C2=CCN(S(=O)(=O)c3ccc(Br)cc3)CC2)c1C	1	0.89
CC(C)(C)OC(=O)N1CCN(c2nc(-c3ccccc3)c3ccccc3n2)CC1	1.2	2.2
CSc1oc(-c2ccc(C)cc2)nc1S(=O)(=O)c1ccc(Cl)cc1	0.94	-0.52
COc1ccc(NC(=O)c2cccc(N3C(=O)C4C5C=CC(C5)C4C3=O)c2)c(OC)c1 (stereo not drawn)	0.98	-0.024

The final 4 records of the section before come first, to join the parts.
SMILES	CBX7 inh	CBX7 inh z-score
Cc1cccc(NC(=O)C2=CCN(S(=O)(=O)c3ccc(Br)cc3)CC2)c1C	1	0.89
CC(C)(C)OC(=O)N1CCN(c2nc(-c3ccccc3)c3ccccc3n2)CC1	1.2	2.2
CSc1oc(-c2ccc(C)cc2)nc1S(=O)(=O)c1ccc(Cl)cc1	0.94	-0.52
COc1ccc(NC(=O)c2cccc(N3C(=O)C4C5C=CC(C5)C4C3=O)c2)c(OC)c1 (stereo not drawn)	0.98	-0.024
CCOC(=O)N1CCN(c2c(NCCCN3CCN(c4ccccc4F)CC3)c(=O)c2=O)CC1	1	0.74
CCOc1ccc(S(=O)(=O)NCc2ccccc2)cc1-c1nc2c(C(C)(C)C)nn(C)c2c(=O)[nH]1	0.84	-2.1
CCN1CCN(CCCNC(=O)c2csc3c2CCCCC3)CC1	0.96	-0.94
CCOC(=O)c1cnc2ccc(OC)cc2c1Nc1ccc(F)cc1	1.1	1.5
Cc1ccc2cccc(Oc3ncnc4sc5c(c34)CCCCC5)c2n1	0.88	-0.24
Cc1c(C(=O)NCCCN2CCOCC2)oc2ccc(S(=O)(=O)N3CCCCC3)cc12	1	0.23
CC(=O)N1CCc2cc(S(=O)(=O)NCC3CCCO3)ccc21 (stereo not drawn)	1	0.35
c1ccc(Nc2c(-c3cccs3)nc3cnccn23)cc1	1.2	2.3
CCC1=Nc2cc(C(=O)N3CCCCC3)ccc2Sc2ccc(C)cc21	0.97	-1.3
Cc1nn(-c2ccccc2)c2c1C(=O)N(Cc1ccccc1)C(=O)C(C)(C)C2	1.1	2.2
COc1ccccc1CNC(=O)CS(=O)(=O)Cc1nc(-c2ccccc2F)oc1C	0.98	-0.45
Cc1ccc(CNS(=O)(=O)c2ccc3c(c2)CC(=O)N3)cc1	1	0.074
O=C(CSc1nc(-c2cccc(Cl)c2)[nH]c1-c1ccccc1)NCC1CCCO1 (stereo not drawn)	1	0.15
CCN1CCN(c2ncc(C(=O)Nc3ccc(Oc4ccccc4)cc3)c3ccccc23)CC1	1.1	0.23
COc1cc(OC)cc(-c2nc(-c3cccnc3)no2)c1	1.1	0.097

Further compounds:
SMILES	CBX7 inh	CBX7 inh z-score
CCc1nc(NC2CCCCC2)c(C#N)c2c1CCCC2	0.87	-1.6
Cc1ccc(NC(=O)c2c(C)nn(-c3ccccc3)c2Cl)cc1C	1	0.49
COc1ccc(C(=O)Nc2nnc(C(C)C)s2)cc1OC	1.1	1.7
CCOC(=O)c1cnc2c(OC)cccc2c1Nc1cccc(O)c1	1	0.21
COC(=O)c1cccc(Nc2nc(-c3ccccc3O)nc3ccccc23)c1	0.99	-0.03
CCOc1ccccc1Nc1cc(C)nc2ccc(Cl)cc12	0.91	-0.11
COc1ccccc1CNC(=O)C(C)C1Sc2ccccc2N(Cc2ccc(F)cc2)C1=O (stereo not drawn)	0.99	-0.23
O=C(Nc1nc(-c2nc3ccccc3s2)cs1)c1ccc(Oc2ccccc2)cc1	1.1	0.59
CC1CCCN(S(=O)(=O)c2ccc3c(c2)CCN3C(=O)C2CC2)C1 (stereo not drawn)	1	0.52
COc1ccc(-c2nn(C)c3sc(C(=O)N4CCCCCC4)cc23)cc1OC	0.96	-1.1
COCCNC(=O)c1ccc2c(c1)N(Cc1cccc(Cl)c1)C(=O)c1ccccc1S2(=O)=O	0.92	-0.49
CC1CCCCC1NC(=O)C1c2cccn2CC(=O)N1C1CC1 (stereo not drawn)	0.84	-3.2
CCN1CCN(c2ncc(C(=O)O)c3ccccc23)CC1	1	0.07
Brc1ccc(CN2CCN(Cc3cccnc3)CC2)cc1	0.65	-4.2
CCCCCCCc1c(O)nc(SCCN2CCOCC2)n(-c2ccccc2)c1=O	1	0.97

(list continues)
SMILES	CBX7 inh	CBX7 inh z-score
CCN(CCCN1C(=O)c2ccccc2C1C(=O)NC1CCCCC1)c1cccc(C)c1 (stereo not drawn)	1.1	0.98
CCCCCC1CCC(c2ccc(-c3nc(-c4ccncc4)no3)cc2)CC1 (stereo not drawn)	1	0.52
COc1ccccc1-c1cc2nc(C)c(CCC(=O)Nc3cccc(Cl)c3C)c(C)n2n1	0.97	-0.83
FC(F)(F)c1nnc2ccc(Cl)nn12	1.2	1.1
CCCCOc1cccc(C(=O)N(Cc2cccs2)C2CCS(=O)(=O)C2)c1 (stereo not drawn)	0.89	-1
Cc1cc2ccccc2c(=O)n1CC(=O)N1CCCCCC1	1.1	2.8
CCOc1ccc(-c2cn(-c3cccc(Cl)c3)c(=O)[nH]2)cc1Cl	0.93	-1.7
Cc1ccc(NS(=O)(=O)c2cc(-c3n[nH]c(=O)c4ccccc34)ccc2C)c(C)c1	0.88	-1.4
COc1ccc2[nH]cc(CCNC(=O)CCC(=O)O)c2c1	0.93	-0.72
Cc1nnc(SCC(=O)Nc2ccccc2)c2ccccc12	1	0.16
CCN(C(=O)COc1cc(=O)n(CC)c2ccccc12)c1cccc(Cl)c1	0.87	-2.1
Cc1ccc(-n2nc3c(c2NC(=O)COc2ccccc2)CSC3)cc1	1.1	0.066
CN(C)c1nnc(-c2ccccc2N)o1	1	1.1
CC(C)N1CCc2c(sc(NC(=O)c3ccc(S(=O)(=O)N(C)C)cc3)c2C(N)=O)C1	1	1.6
COc1ccc(S(=O)(=O)NCCc2c(C)[nH]c3ccc(C)cc23)cc1C	0.91	-1.4
O=C(CCCC1=NS(=O)(=O)c2ccccc2N1)N1CCN(c2cccc(Cl)c2)CC1	0.89	-2.4
